# High-throughput results: PubChem BioAssay, Broad Institute
# MITF inhib: blocks MITF activity; TRPM1 promoter luciferase, luminescence, 24 h; inhibition, % (concentration not given with the values); 37,000 tested, 0.28% active; AID 2240;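 active means most replicates at 85% or more, or half of them and the mean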;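 further: human melanocyte line stably carrying TRPM1 promoter luciferase reporter; 0% = vehicle wells and 100% = a positive control; the first replicate is given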
# YB-1 expr inh: YB-1 expression inhibition; U2OS, qRT-PCR YB-1 vs CDIP delta delta Cp, 16 h; active compounds read high; zero = DMSO, each unit about twofold; delta delta Cp (YB-1 minus CDIP) (no concentration beside the values); 30,000 tested, 0.37% active; AID 434959;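 active means delta delta Cp rounded down to an integer at or above 3, about 3 SD of DMSO wells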;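 further: higher means less YB-1 transcript or more CDIP transcript relative to DMSO; stock transfer was 100 nL into about 100 µL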
# PD-1 reverse act: reversal of PD-1 mediated T-cell inhibition; primary human CD4 T cells, PD-L1 beads, CellTiter-Glo 96 h; activation, % (test concentration not listed); 29,000 tested, under 10 active;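 active means replicate mean of 50% or more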;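 further: 0% = median vehicle wells and 100% = positive control; 100 nL library stock added to about 50 µL; numbers are from one replicate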
# Shh pathway inh: Sonic Hedgehog pathway inhibition; Shh-LIGHT2 Gli-luciferase reporter, 30 h; 22,000 tested, 2.1% active; AID 2313; inhibition, % (no concentration beside the values);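 active means replicate mean of 65% or more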;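 further: pathway switched on by Shh-conditioned medium diluted 1 in 25 in low serum; 100 nL library stock added to about 40 µL; 0% = median of neutral wells and 100% = positive control level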
# Starred values were filed as active, the others as inactive; . = no result given. Only part of the results is shown; count on the stated rates, not on these rows.
# Preview, four compounds:
# Each structure is followed by: MITF inhib, YB-1 expr inh, PD-1 reverse act, Shh pathway inh
COc1ccc(NC(=O)c2ccc3c(=O)n(CCc4ccccc4)c(=S)[nH]c3c2)cc1
    -5, -0.35, 3.6, 36
C[C@@H]1CN([C@@H](C)CO)C(=O)c2cc(NC(=O)Nc3cccc4ccccc34)ccc2O[C@H]1CN(C)Cc1ccc(C(=O)O)cc1
    7, 0.19, 1.1, .
O=C(OC1OC(CO)C(O)C(O)C1O)c1c(O)cc(O)cc1/C=C/c1ccccc1 (stereo not drawn)
    -55, 0.23, 1.3, -19
C[C@H](CO)N1C[C@H](C)[C@@H](CN(C)C(=O)Nc2ccc(C(F)(F)F)cc2)Oc2c(NS(=O)(=O)c3cccs3)cccc2C1=O
    -5, 0.36, 0.7, -32

# The list itself, repeating the preview:
# Each structure is followed by: MITF inhib, YB-1 expr inh, PD-1 reverse act, Shh pathway inh
COc1ccc(NC(=O)c2ccc3c(=O)n(CCc4ccccc4)c(=S)[nH]c3c2)cc1
    -5, -0.35, 3.6, 36
C[C@@H]1CN([C@@H](C)CO)C(=O)c2cc(NC(=O)Nc3cccc4ccccc34)ccc2O[C@H]1CN(C)Cc1ccc(C(=O)O)cc1
    7, 0.19, 1.1, .
O=C(OC1OC(CO)C(O)C(O)C1O)c1c(O)cc(O)cc1/C=C/c1ccccc1 (stereo not drawn)
    -55, 0.23, 1.3, -19
C[C@H](CO)N1C[C@H](C)[C@@H](CN(C)C(=O)Nc2ccc(C(F)(F)F)cc2)Oc2c(NS(=O)(=O)c3cccs3)cccc2C1=O
    -5, 0.36, 0.7, -32
C[C@H]1CN([C@@H](C)CO)C(=O)c2cccc(NS(=O)(=O)c3ccccc3)c2O[C@H]1CN(C)Cc1ccc2c(c1)OCO2
    -4, -0.44, 0.5, 13
COC(=O)CN(c1ccc(Cl)c(C(F)(F)F)c1)S(=O)(=O)c1ccc(C)cc1
    -2, ., -0.9, .
C[C@@H]1CN([C@H](C)CO)C(=O)c2cccc(NC(=O)Nc3ccc(F)cc3)c2O[C@@H]1CN(C)S(=O)(=O)c1ccccc1
    -11, 0.26, -2.0, -5
C[C@@H]1CN([C@H](C)CO)C(=O)c2cc(NC(=O)Nc3cccc4ccccc34)ccc2O[C@H]1CN(C)S(=O)(=O)c1cccs1
    -30, -0.11, -1.4, 35
O=C(CSc1nc2ccccc2c(=O)n1-c1ccc(Br)cc1)Nc1cccc(F)c1
    -18, ., 0.7, .
COc1ccc(OC)c(N/C=C(\C#N)c2nc(-c3cc4ccccc4oc3=O)cs2)c1
    -10, -0.23, -0.9, -25

# Ordered by heavy-atom count (falling): part of the list above.
# Each structure is followed by: MITF inhib, YB-1 expr inh, PD-1 reverse act, Shh pathway inh
C[C@@H]1CN([C@H](C)CO)C(=O)c2cc(NC(=O)Nc3cccc4ccccc34)ccc2O[C@H]1CN(C)S(=O)(=O)c1cccs1
    -30, -0.11, -1.4, 35
C[C@@H]1CN([C@H](C)CO)C(=O)c2cccc(NC(=O)Nc3ccc(F)cc3)c2O[C@@H]1CN(C)S(=O)(=O)c1ccccc1
    -11, 0.26, -2.0, -5
COc1ccc(NC(=O)c2ccc3c(=O)n(CCc4ccccc4)c(=S)[nH]c3c2)cc1
    -5, -0.35, 3.6, 36

# The list goes on:
# Each structure is followed by: MITF inhib, YB-1 expr inh, PD-1 reverse act, Shh pathway inh
O=C(O)COc1ccccc1-c1nc(-c2ccccc2)c(-c2ccccc2)[nH]1
    0, ., 0.1, .
COc1ccc(NC(=O)N(C)C[C@@H]2OCCCC[C@@H](C)Oc3ccc(NS(=O)(=O)c4c(C)noc4C)cc3C(=O)N([C@H](C)CO)C[C@@H]2C)cc1
    -9, -0.15, ., -43
C[C@@H]1CN([C@H](C)CO)C(=O)Cc2cc(NS(=O)(=O)c3ccc(Cl)cc3)ccc2O[C@@H]1CN(C)Cc1ccc(C(F)(F)F)cc1
    3, -0.038, -4.7, 19
CC1(C)CC[C@]2(C(=O)O[C@@H]3O[C@H](CO[C@@H]4O[C@H](CO)[C@@H](O)[C@H](O)[C@H]4O)[C@@H](O)[C@H](O)[C@H]3O)CC[C@]3(C)C(=CCC4[C@@]5(C)CC[C@H](O[C@@H]6OC[C@H](O)[C@H](O)[C@H]6O)C(C)(C)C5CC[C@]43C)[C@@H]2C1 (stereo partly drawn)
    ., 0.63, ., -26
